GLA inh pH 4.5: inhibitors of human alpha-galactosidase A at pH 4.5. 230,000 tested, under 10 active. AID 1467. P06280. purified enzyme, 4-MU-alpha-Gal fluorescence, pH 4.5. activity change, negative = inhibition, % at 105 µM; inconclusive = small, poorly fitted or top-dose-only inhibition, or a rising curve; inactive = flat fitted curve, though single readings scatter; no compound was filed as active;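 further: 0% = full activity with enzyme and -100% = basal without enzyme; dose as in the result columns while the protocol names 77 µM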
Target sequence (P06280 whole entry, looked up): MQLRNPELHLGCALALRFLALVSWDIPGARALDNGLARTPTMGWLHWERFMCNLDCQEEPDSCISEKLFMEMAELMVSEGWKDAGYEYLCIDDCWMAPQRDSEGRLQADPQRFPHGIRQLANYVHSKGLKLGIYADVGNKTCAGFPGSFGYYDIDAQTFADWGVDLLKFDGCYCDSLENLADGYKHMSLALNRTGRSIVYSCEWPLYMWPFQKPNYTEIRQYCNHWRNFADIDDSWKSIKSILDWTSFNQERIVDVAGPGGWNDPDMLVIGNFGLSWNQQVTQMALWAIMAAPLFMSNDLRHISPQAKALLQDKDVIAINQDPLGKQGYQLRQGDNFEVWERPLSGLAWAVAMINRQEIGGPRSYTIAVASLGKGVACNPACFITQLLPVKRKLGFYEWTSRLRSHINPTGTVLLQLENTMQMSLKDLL
Rango dissoc inh: inhibitors of RanGTP-induced Rango-importin beta complex dissociation | O95149+P62826 | Biochemical FRET Rango-importin beta, RanGTP-induced dissociation | Potency, µM (top dose mostly 46.1 µM), for inactives: at the top dose activity change, negative = inhibition | 340,000 compounds, 0.071% hits; active means falling FRET ratio curve, often poorly fitted, with flat reads before Ran was added; inconclusive means other falling curves, or compound fluorescence or quenching; inactive means flat or rising ratio curve;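 further: potency means the concentration at half of the fitted maximal effect; % of control where 0% means no effect; nearly all actives have a fitted effect of over 45% in size; -100% = wells without RanGTP and RCC1; the record marks most hits as doubtful in a second field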
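Recombinant Rango FRET biosensor (EYFP–snurportin 1 IBB–cerulean CFP10) at 0.1 uM premixed with 0.25 uM importin beta in PBS, 1 mM DTT, 0.02% Tween-20, 0.1% BSA. Compound added 5 min; RanGTP-RCC1 (0.6 uM Ran, 2 mM GTP, 0.2 uM RCC1) then triggers release, read at 45 min.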
Rango-impB inh: inhibitors of Rango-importin beta complex formation; Q14974; Potency, µM (doses to about 92.2 µM), for the others: at the top dose inhibition of complex formation; Rango CFP/YFP FRET sensor + importin beta, 45 min; 340,000 compounds, 0.031% hits; AID 540263; active = rising FRET ratio curve, often small or poorly fitted; inconclusive = mostly compound fluorescence or quenching in the first reads; inactive = flat curves in all reads;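 further: potency means the concentration at half of the fitted maximal effect; 0% = DMSO wells and 100% = buffer wells lacking importin beta; nearly all actives have a fitted effect of over 15% in size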
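FRET biosensor (snurportin 1 IBB flanked by EYFP and cerulean), 50 nM, with compound 5 min, then 0.125 microM importin beta in PBS, 1 mM DTT, 0.02% Tween-20, 0.1% BSA. CFP/YFP ratio read after 45 min at room temperature; pre-read flags interference.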
miR-21 reporter: raises the signal of a miR-21 reporter. HeLa miR-21 FLuc reporter, luciferase, 48 h. Potency, µM (top dose mostly 38.3 µM), inactives show top-dose reporter change, positive = more light. 340,000 tested, under 10 active. AID 2288; active = well fitted rising curve with a large enough effect; inconclusive = small, poorly fitted or top-dose-only effect; inactive = no such curve, though single readings can be large or run the other way;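 further: % of control where 0% means no effect; miR-21 action dims this reporter so a rising signal means less miR-21 action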
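HeLa cells endogenously expressing miR-21, stably carrying CMV-driven firefly luciferase with a downstream miR-21 binding site, 2000 cells/well. Titrations up to approximately 40 uM, 48 hours; luciferase luminescence read.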
* marks the source's active call; other numbers are inactive results; ? = inconclusive; · = no result given; & = joins results of further samples.

SMILES	GLA inh pH 4.5	Rango dissoc inh	Rango-impB inh	miR-21 reporter
CCCNC(=O)c1ccc(N2CC3CC(C2)c2cccc(=O)n2C3)c(NC(=O)Nc2ccc(CC)cc2)c1 (stereo not given)	·	-14%	4.1%	-1%
N#Cc1c(NC(=S)NC(=O)c2ccccc2)sc2c1CCCC2	-6	10%	2.7%	-38%
COc1ccc(C(=O)Oc2ccc(C(=S)N3CCOCC3)cc2)cc1	6	-16%	-1.3%	0%
C[C@@H]1COC(=O)[C@H](NC(=O)OCC2c3ccccc3-c3ccccc32)C/C=C\C[C@@H](CC(=O)N[C@H](CO)Cc2ccccc2)C(=O)N1	·	15%	0.1%	·
CCn1c(=O)cc(OCC(=O)Nc2ccc3c(c2)OCCO3)c2ccccc21	3	0%	?	-2%
CC1CCN(c2ccc3c(c2)S(=O)(=O)c2cccc(C(=O)NC4CCCCC4)c2C3=O)CC1	·	?	?	·
CCOC(=O)C1(C)NC(c2ccc(O)cc2)C2C(=O)N(c3ccccc3)C(=O)C21 (stereo not given)	·	2%	0.4%	-1%
O=C(c1ccc2c(c1)OCCO2)N1CCN(c2ccc([N+](=O)[O-])cc2)CC1	2	·	·	-1%
COc1ccc(Cc2nc3ccc(C(=O)N4CCCCC4CCO)cc3o2)cc1 (stereo not given)	·	5%	-0.3%	-5%
CCOc1cc(/C=N/NC(=O)c2ccc3c(c2)OCCO3)cc(Br)c1O	·	?	?	-32%
CC(=O)Nc1c(-c2ccc(F)cc2)nc2ccccn12	5	29%	6.0%	0%
O=C(O)c1ccc(OCC(O)Cn2cnc3ccccc32)cc1 (stereo not given)	6	10%	0.0%	-2%

Profiles, looked up by structure.
O=C(c1ccc2c(c1)OCCO2)N1CCN(c2ccc([N+](=O)[O-])cc2)CC1 is listed with GLA inh pH 4.5: 2; Rango dissoc inh: ·; Rango-impB inh: ·; miR-21 reporter: -1%
CCOC(=O)C1(C)NC(c2ccc(O)cc2)C2C(=O)N(c3ccccc3)C(=O)C21 (stereo not given) is listed with GLA inh pH 4.5: ·; Rango dissoc inh: 2%; Rango-impB inh: 0.4%; miR-21 reporter: -1%

Continued:
SMILES	GLA inh pH 4.5	Rango dissoc inh	Rango-impB inh	miR-21 reporter
COc1cccc(/C=C/C(=O)OCC(=O)Nc2ccccc2Sc2ccccc2)c1	-2	-3%	2.1%	-2%
CCN(Cc1ccccc1)C(=O)c1ccc2c(=O)n3c(nc2c1)CCC3	·	-7%	-1.8%	·
Cc1ccccc1NC(=O)c1onc2c1CCCC2	-3	-11%	3.4%	-35%
COc1ccccc1-c1noc(-c2ccccc2C(=O)Nc2cccnc2)n1	6	12%	3.8%	-3%
CSc1ccc(CN2CCC(CO)(CCOc3ccccc3)CC2)cc1	·	-2%	4.6%	21%
COc1ccccc1NS(=O)(=O)c1cccc(C(=O)N2CCCCCCC2)c1	·	-9%	1.5%	·
Brc1ccc(-c2csc(-c3ccncc3)n2)cc1	-6	4%	-0.4%	-44%
Cc1ccccc1C(=O)Nc1ccccc1N1CCN(C(=O)c2ccccc2)CC1	·	0%	-3.5%	14%
COc1ccc(CCC(=O)Nc2nc(-c3ccncc3)cs2)cc1	0	·	·	-4%
CC(=O)Nc1ccc(Nc2cc(N3CCOCC3)c3nonc3c2[N+](=O)[O-])cc1	-11	-11%	0.2%	-1%
CSc1nnc2c(n1)OC(c1ccsc1)N(C(C)=O)c1ccccc1-2 (stereo not given)	-6	-17%	0.2%	-2%
CC(C)OCCCNC(=O)C1CCN(S(=O)(=O)N2CCCC2)CC1	4	-1%	-0.9%	0%
Cc1cccc(C(=O)OCC(=O)N2CCCCCC2)c1O	·	24%	?	·
CC(C)CN(C(=O)COC(=O)c1nc(Cl)ccc1Cl)C1CCS(=O)(=O)C1 (stereo not given)	-2	-1%	4.2%	2%
Cc1cc(N(C)C)c(C#N)c(N2CCCCC2)n1	1	-5%	0.8%	-13%
COc1cc(/C=C2\SC(=S)N(NC(=O)c3ccc(O)c(OC)c3)C2=O)ccc1O	·	?	?	-29%
Nc1ccc(C23CC4CC(CC(O)(C4)C2)C3)cc1	-3	-3%	0.3%	-5%
COc1ccc(C(=O)Nc2ccncc2)c(OC)c1	3	0%	3.4%	-36%
Cc1ccc(NC2CCCN(C(=O)c3cn(C)c4ccccc34)C2)cc1C (stereo not given)	·	-5%	-0.1%	-2%
COc1cc(OC)cc(C(=O)N[C@H](C(=O)OCC(=O)c2c[nH]c3ccccc23)C(C)C)c1	·	17%	-1.2%	·
Cc1c(NC(=S)N/C(=N/S(=O)(=O)c2ccccc2)c2ccccc2)c(=O)n(-c2ccccc2)n1C	-6	-10%	0.1%	7%
COc1ccc(OC)c2sc(N(CCN(C)C)C(=O)c3ccc4ccccc4c3)nc12	·	0%	3.9%	1%
O=C(NNS(=O)(=O)c1ccccc1)c1cccc([N+](=O)[O-])c1	·	-12%	0.2%	-3%
CS(=O)(=O)N1CCCC(C(=O)NCc2ccc(F)cc2)C1 (stereo not given)	0	4%	5.6%	1%
O=C(CCn1nc(-c2ccc(Cl)cc2)c2ccccc2c1=O)Nc1cccnc1	-2	7%	0.2%	0%
CCOc1ccccc1NC(=O)CSc1nc2nc(-c3cccs3)cc(C(F)(F)F)c2c(=O)[nH]1	-1	-6%	-0.1%	18%
O=C(CSc1ccc(-c2cccs2)nn1)NCCc1ccccc1	-1	-9%	2.2%	-3%
CC(=O)N(C)c1nc(N)n(-c2ccccc2)n1	10	0%	-1.6%	1%
O=C(NCC1CCCO1)Nc1ccccc1 (stereo not given)	8	22%	-3.8%	-15%
CCOC(=O)/C(=C\c1cccc(O)c1)c1nc2sc(C)c(C)c2c(=O)[nH]1	1	-4%	0.5%	16%
NS(=O)(=O)c1cccc(NC(=O)Nc2ccccc2)c1	7	28%	?	0%
Cc1c(Br)c([N+](=O)[O-])nn1CC(=O)NCCc1ccc(Cl)cc1	-2	1%	0.5%	4%
CCC1Nc2ccccc2-c2nnc(SC)nc2O1 (stereo not given)	7	4%	2.1%	-3%
CC(=O)n1cc([C@H]2C=C(C(=O)NCc3ccccc3)O[C@@H](OCCCCO)C2)c2ccccc21	0	-30%	?	5%
COCCNC(=O)C1CCN(S(=O)(=O)c2ccc3c(c2)OCCO3)CC1	·	10%	3.2%	·
CC(/C=N/NC(=O)c1ccc2nc(C)[nH]c2c1)=C\c1ccccc1	3	-7%	-3.3%	9%
O=C(Cc1cccc(C(F)(F)F)c1)Nc1cc(S(=O)(=O)N2CCOCC2)ccc1N1CCCC1	·	13%	-4.9%	·
CCOC(=O)C(=NC(C)C)NNc1cc(Cl)ccc1Cl	1	-5%	-0.3%	-4%
CC(C)(C)c1ccc(C(=O)NNc2ccc(F)cc2F)cc1	1	9%	-0.3%	-4%
CC(C)n1c(/N=C/c2ccccc2O)nc2ccccc21	·	-2%	0.8%	-2%
COc1ccc(NC(=O)CSCC(=O)Nc2ccccc2C(=O)N2CCCCC2)cc1	·	5%	-3.6%	·
COc1ccc(C(=O)CSc2nnc(NC(=O)C3CC(=O)N(c4ccccc4C)C3)s2)cc1 (stereo not given)	2	-2%	?	-12%
O=C(COC(=O)Cc1ccc(Cl)cc1)NCc1cccs1	·	25%	1.1%	·
COc1ccccc1N1CCN(C(=O)CCc2ccc(S(=O)(=O)NCC(C)C)cc2)CC1	7	20%	0.1%	22%
Cc1nc2ccc(S(=O)(=O)NC(C(=O)Nc3nccs3)C(C)C)cc2s1 (stereo not given)	9	-3%	0.6%	2%
Cc1ccccc1NC(=O)c1c(O)c2cccc3c2n(c1=O)CC3	8	·	·	-14%
COc1cc(NC(=O)c2cc(-c3ccco3)on2)c(OC)cc1Cl	5	-3%	3.5%	-1%
O=C(c1ccc(-n2cccc2)cc1)N1CCOCC1	5	-2%	-5.2%	-8%

Arranged by value in Rango-impB inh (rising): 5 of the compounds above.
structure | Rango-impB inh
O=C(c1ccc(-n2cccc2)cc1)N1CCOCC1 | -5.2%
COc1ccc(NC(=O)CSCC(=O)Nc2ccccc2C(=O)N2CCCCC2)cc1 | -3.6%
CCOC(=O)C(=NC(C)C)NNc1cc(Cl)ccc1Cl | -0.3%
Cc1nc2ccc(S(=O)(=O)NC(C(=O)Nc3nccs3)C(C)C)cc2s1 (stereo not given) | 0.6%
CC(C)n1c(/N=C/c2ccccc2O)nc2ccccc21 | 0.8%

(more compounds)
SMILES	GLA inh pH 4.5	Rango dissoc inh	Rango-impB inh	miR-21 reporter
CC(C(=O)Nc1ccc(N(C)C)cc1)N1C(=O)c2ccccc2S1(=O)=O (stereo not given)	·	-26%	2.0%	·
Cc1cccc(N2C(=O)C3CCCN3C2=S)c1C (stereo not given)	·	0%	1.7%	·
C[C@@H](NC(=O)c1nc[nH]c1C(=O)N1CCc2ccccc2C1)c1ccccc1	·	7%	1.8%	·
O=C(N[C@H]1CCCCNC1=O)c1cc(COc2ccc(F)cc2F)on1	·	-10%	4.9%	-37%
C=C1c2ccccc2NC(=S)N1Cc1ccc2c(c1)OCO2	-2	-10%	3.4%	-37%
OC1CCN(C(=S)Nc2ccc(Nc3ccccc3)cc2)CC1	-2	11%	3.6%	-42%
Cc1cc(C)c2c(=O)[nH]cnc2n1	3	-4%	-0.6%	8%
COc1ccc(C2Nc3ccccc3C(=O)N2NS(=O)(=O)c2ccc(C)cc2)cc1 (stereo not given)	13	-18%	?	0%
CN1CCN(c2nc3c(c(=O)[nH]c(=O)n3C)n2CC(N)=O)CC1	7	1%	-6.1%	-2%
CN(Cc1c(C(=O)N2CCc3ccccc3C2)nc2ccc(Cl)cn12)C(C1CC1)C1CC1	-17	0%	0.2%	-1%
Cc1cc(C)c2c(n1)SCC(=O)N2CC(=O)Nc1c(C)cccc1C	·	12%	12%	0%&-1%
CC1CCN(C(=O)c2cc3c(=O)n4ccccc4nc3s2)CC1	·	-10%	?	-81%
CCC1(CC)Cc2ccccc2-c2nc(NN)[nH]c(=O)c21	-7	-7%	1.4%	12%
CCOC(=O)C1CCN(C(=O)C2CCN(S(=O)(=O)c3cc(Cl)ccc3OCC)CC2)CC1	·	1%	1.4%	6%
Cc1nc(-c2ccccc2)sc1C(=O)NN	0	-14%	-0.9%	27%
CCCC(=O)NC(C)c1nc2ccccc2[nH]1 (stereo not given)	4	0%	-1.8%	-2%
COc1cc(/C=N/NC(=O)c2cccnc2)ccc1OCC(=O)N1CCOCC1	-3	-4%	-3.5%	-1%
CC(=O)COc1ccc2c(-c3cccc([N+](=O)[O-])c3)cc(=O)oc2c1	1	-17%	-0.5%	-4%
Cc1cc(OCC(=O)NCCCN2CCCC2=O)c2c(C)cc(=O)oc2c1	·	-4%	1.5%	-4%
COc1ccc(Cn2nc(C)cc2C)cc1OC	-4	1%	?	-10%
CCC(=O)Nc1cc2c(cc1Cl)-c1ccccc1C2	·	-6%	-1.5%	·
CCn1c(=O)c2cc(C(=O)Nc3cccc(C(C)=O)c3)sc2c2ccccc21	28	6%	1.2%	2%
CC(C)CSc1nc2c(=O)[nH][nH]c(=O)c2n1Cc1ccccc1	2	3%	2.8%	-6%
O=C1c2ccsc2SCCN1Cc1ccc(F)cc1	·	-1%	-2.2%	-7%
O=C(COc1ccccc1)N1CCN=C1SCc1cccnc1	1	-14%	-0.5%	-4%
COc1ccc(CNC(=O)C2CC(C)=C(C)CC2C(=O)O)cc1 (stereo not given)	8	-7%	0.2%	0%
CCCc1nc2oc3c(Cl)ncnc3c2c2c1CCCC2	-3	12%	-3.5%	2%
CC1CCN(C(=O)c2cc(F)c(F)cc2Cl)CC1	-11	23%	-1.2%	-4%
O=C(CCn1nc(-c2ccccc2)ccc1=O)N1CCOCC1	4	8%	-1.2%	-14%
CCNc1cc(O)ccc1C	·	-19%	?	·
CC(C)C(O)C1CCN(Cc2nc(-c3cccs3)no2)CC1 (stereo not given)	?	9%	6.1%	-5%
O=C(c1n[nH]c2ccccc12)N1CCOCC1	5	-1%	7.7%	-1%
O=C(c1ccc(Cl)cc1Cl)N1CCC(c2nc3c(nnn3Cc3ccco3)c(=O)[nH]2)CC1	0	-21%	4.9%	-14%
C=C(C)[C@@H](O)COc1c2ccoc2cc2oc(=O)ccc12	·	2%	-0.9%	·
COc1ccc(NC(=O)Cc2coc3ccc4ccccc4c23)cc1S(=O)(=O)N1CCOCC1	-4	15%	0.3%	-3%

An excerpt; count on the stated rates, not on these rows.
